Cruzain Triton: blocks cruzain activity in presence of Triton detergent. P25779. purified cruzain, Z-FR-AMC fluorescence, 0.01% Triton. Potency, µM, for inactives: max response, negative = inhibition, actives largely listed as inhibitors. hit rate 0.43% among 200,000; active = well fitted curve in the direction sought with a large enough effect; inconclusive = small, poorly fitted or top-dose-only effect, or another doubt; inactive = no such curve, though single readings can be large; an effect the other way counts as inactive or inconclusive;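 note: plate controls were neutral wells for no effect and buffer without enzyme for full effect; nearly all actives have a fitted effect of over 40% in size; top concentration of the series not given in the record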
Target sequence (P25779 123-467 limits assumed): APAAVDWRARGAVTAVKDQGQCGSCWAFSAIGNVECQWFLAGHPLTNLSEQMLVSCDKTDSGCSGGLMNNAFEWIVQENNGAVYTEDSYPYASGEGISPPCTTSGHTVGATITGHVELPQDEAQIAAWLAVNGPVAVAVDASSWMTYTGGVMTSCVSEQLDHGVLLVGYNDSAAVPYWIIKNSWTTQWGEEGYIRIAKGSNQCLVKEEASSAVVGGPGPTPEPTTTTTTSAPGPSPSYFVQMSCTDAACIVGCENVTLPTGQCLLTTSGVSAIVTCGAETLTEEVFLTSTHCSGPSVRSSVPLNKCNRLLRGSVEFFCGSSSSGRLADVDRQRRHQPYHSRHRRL
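Purified cruzain (1.5 nM final) was preincubated with compounds for 15 min at room temperature in 100 mM sodium acetate pH 5.5, 5 mM DTT, 0.01% Triton X-100. Reaction started with 2 uM Z-FR-AMC; AMC fluorescence change over 60 s gave activity.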
NS1 function inh: influenza NS1 inhibition; S. cerevisiae slowed by influenza A NS1, growth recovery by OD600; Potency, µM (titrated, usually from 46.1 µM), inactives show top-dose activity, positive = more growth; hit rate 0.4% among 270,000; note: actives are rising curves; nearly all actives have a fitted effect of over 50% in size
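Compounds were scored for reversing the slow growth caused by influenza A NS1 in S. cerevisiae, measured by optical density at 600 nm. Assay medium contained 2% galactose at pH 6.0; NS1-free yeast of the same strain were the positive control.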
Cruzain noTriton: cruzain (T. cruzi) inhibition without detergent. P25779. purified cruzain, Z-FR-AMC fluorescence, no detergent. Potency, µM, for inactives: max response, negative = inhibition, actives largely listed as inhibitors. hit rate 2.3% among 200,000; active = well fitted curve in the direction sought with a large enough effect; inconclusive = small, poorly fitted or top-dose-only effect, or another doubt; inactive = no such curve, though single readings can be large; an effect the other way counts as inactive or inconclusive;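 note: plate controls were enzyme without inhibitor for no effect and buffer without enzyme for full effect; nearly all actives have a fitted effect of over 40% in size; top concentration of the series not given in the record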
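Purified cruzain at 1.5 nM, pre-incubated 15 min with compound at room temperature in 100 mM sodium acetate pH 5.5, 5 mM DTT, 0.00005% Triton X-100. Reaction started with 2 uM Z-FR-AMC; AMC fluorescence increase over 60 s gives rate.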
SARS PLpro yeast: SARS-CoV PLP inhibition in yeast. S. cerevisiae expressing SARS-CoV PLpro, growth rescue; control for the full effect not named in the record. Potency, µM (doses to about 32.9 µM), for inactives: at the top dose activity, positive = growth rescue. hit rate 0.19% among 330,000. AID 485353; note: 0% is about no effect; nearly all actives have a fitted effect of over 55% in size; growth read by luminescence after 48 h
Marburg entry inh: Marburg virus entry inhibition. Marburg virus pseudotyped entry inhibition, cell reporter; control for the full effect not named in the record; about a third of the inactives were read at about 46 µM. AID 540276. Potency, µM (top dose mostly 37.8 µM), without a hit: at the top dose activity change, negative = inhibition, hits mostly inhibitors. hit rate 1.8% among 300,000; active = well fitted inhibition curve with a large enough effect; inconclusive = small, poorly fitted or top-dose-only effect, or effect the other way; inactive = flat fitted curve, though single readings scatter; tested in HEK293 cells; about a fifth of its hits are not listed in these tables; note: % is set by controls: 0 for no effect and ±100 for the full control effect; luciferase read-out
Lassa entry inh: inhibitors of Lassa virus binding or cell entry. Lassa virus pseudotype entry inhibition, cell reporter; control for the full effect not named in the record. Potency, µM (series often up to 37.9 µM), inactives show at the highest dose activity change, negative = inhibition, usual class: inhibitors. AID 540256. hit rate 1.2% among 300,000; active means well fitted inhibition curve with a large enough effect; inconclusive means small, poorly fitted or top-dose-only effect, or effect the other way; inactive means flat fitted curve, though single readings scatter; tested in HEK293 cells; note: % is set by controls: 0 for no effect and ±100 for the full control effect; nearly all actives have a fitted effect of over 50% in size; luciferase read-out
StopGo reporter: lowers the luciferase signal of an FMDV 2A StopGo reporter | human cells with a luciferase reporter of 2A StopGo recoding; control for the full effect not named in the record | Potency, µM (top dose mostly 57.9 µM), inactives show at the highest dose signal change, negative = less light | AID 1159524 | hit rate 1.2% among 410,000; active = well fitted falling curve with a large enough effect; inconclusive = small, poorly fitted or top-dose-only effect; inactive = no such curve, though single readings can be large or run the other way; tested in HEK293T cells; note: % is set by controls: 0 for no effect and ±100 for the full control effect; nearly all actives have a fitted effect of over 45% in size; luciferase light after 4 h
RE007 growth inh: less growth of the S. pombe RE007 Vpr strain | Potency, µM (highest dose often 92.2 µM), without a hit: at the highest dose activity change, negative = less growth | hit rate 0.21% among 360,000 | S. pombe RE007 Vpr strain, BacTiter-Glo ATP luminescence, 24 h; control for the full effect not named in the record; active = well fitted falling curve with a large enough effect; inconclusive = small, poorly fitted or top-dose-only effect; inactive = no such curve, though single readings can be large or run the other way;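 note: % is set by controls: 0 for no effect and ±100 for the full control effect; nearly all actives have a fitted effect of over 50% in size; the assay follows cell death caused by Vpr and the record does not say whether a fall means rescue or toxicity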
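Fission yeast RE007 carrying one integrated HIV-1 vpr copy, seeded at OD 0.01 in PMG+AL medium with 23 nL pinned compound. Grown 24 h at 30 degrees; viability read by BacTiter-Glo luminescence after 5 min.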
The depositor's hits bear a star; ? = inconclusive; nt = no result given; & = joins results of further samples; [ ] = dose if it differs, or a comment. Unless noted, calls come from the whole dose curve; as a rule, active means well fitted rising curve with a large enough effect; inconclusive means small, poorly fitted or top-dose-only effect; inactive means no such curve, though single readings can be large or run the other way. Potency is the fitted concentration of half-maximal effect.

SMILES	Cruzain Triton	NS1 function inh	Cruzain noTriton	SARS PLpro yeast	Marburg entry inh	Lassa entry inh	StopGo reporter	RE007 growth inh
S=c1[nH]cnc2sc(-c3ccccc3)cc12	nt	nt	nt	24%	10%[46.1 µM]	nt	0%	-12%
COC(=O)c1ccc(NC(=O)C(=O)c2c[nH]c3ccccc23)cc1	nt	-17%	nt	-6%	nt	nt	49%[activator]	1%
Cc1ccc(C)c(S(=O)(=O)NCCN2CCOCC2)c1	nt	2%	nt	1%	nt	nt	68%[activator]	-4%
Cc1ccc(N(C(=O)c2cccs2)C2C=CS(=O)(=O)C2)cc1 (stereo not drawn)	6.1%	-68%	-7%	-6%	nt	nt	-23%	-13%
Cc1cccc(N2CCN(CCNC(=O)Nc3ccc(Cl)cc3)CC2)c1C	-1.9%	nt	4%	nt	7%[46.1 µM]	14%[46.1 µM]	0%	nt
CC(C)COP(=O)(CNC(=O)CN1C(=O)c2ccccc2S1(=O)=O)OCC(C)C	-1.8%	-4%	3%	3%	-2%	1%	22%	-4%
CCOC(=O)c1c(C)[nH]c(C)c1S(=O)(=O)N(C)CC(=O)N1CCN(c2cccc(Cl)c2)CC1	-1.1%	nt	-9%	nt	nt	?	-15%	nt
CCOc1ccccc1C(=O)N/N=C/c1ccoc1	nt	-5%	nt	?	nt	nt	-9%	5%
Cc1cccc(C(=O)N2CCC(=O)N([C@H](COCc3cccc(C(F)(F)F)c3)Cc3ccccc3)CC2)c1	-5.7%	nt	?	nt	nt	nt	-24%	-2%
CCOC(=O)N1CCN(C(=O)c2cccc(OC)c2O)CC1	-1.9%	3%	-2%	9%	1%	-7%	-19%	-7%[3.69 µM]
CC(=C\C(=O)O)/C(=C\c1cccc2ccccc12)C(=O)O	nt	-92%	nt	3%	-4%[46.1 µM]	7%	-9%	-26%
COc1ccc(Nc2ccccc2C(=O)O)cc1	nt	nt	nt	9%	?	-8%	19%	7%
O=C(NN=Cc1ccc(F)cc1)c1cccc(S(=O)(=O)N2CCCC2)c1	nt	nt	nt	3%	2%	13%	-11%	0%
CCc1cc(C(=O)N2CCCC(CO)(Cc3ccc(F)cc3)C2)n(C)n1 (stereo not drawn)	nt	?	nt	3%	nt	nt	-8%	10%
Cc1ccc(CSCC(=O)N2CCOCC2)cc1	6.2%	6%	7%	15%	?	18%	24%	-17%
Cc1cccc(C(=O)Nc2c(C(=O)N3CCN(C)CC3)cnn2-c2ccccc2)c1	nt	nt	nt	nt	-1%	6%	0%	1%
O=c1[nH]c(=S)n(-c2ccccc2)c(O)c1C=NCCN1CCNCC1	nt	-2%	nt	1%	nt	nt	0%	-7%
COc1cc([N+](=O)[O-])cc(/C=N/NC(=O)C(C)Nc2cccc3ccccc23)c1O (stereo not drawn)	2.7%	4%	?	10µM*	-29%	-8%	-24%	-16%
Cc1ccc2nc(NC(=O)C3CCCN(S(=O)(=O)c4cccnc4)C3)sc2c1 (stereo not drawn)	-12%	-67%	-11%	4%	-2%	nt	-22%	6%
c1ccc2c(c1)[nH]c1nc3nncn3nc12	-2.1%	0%	2%	-5%	?	0%	22%	5%
O=C(NCCO)C(=O)NCC1CCCN1S(=O)(=O)c1cccs1 (stereo not drawn)	nt	nt	nt	3%	12%	7%	-9%	-5%
NC(=NCCc1ccccc1)c1cccc([N+](=O)[O-])c1	nt	6%	nt	7%	nt	nt	-11%	3%
COc1ccc(N(C(=O)c2ccccc2)S(=O)(=O)c2cccs2)cc1	nt	-10%	nt	-2%	?	-13%	4%	2%
Cc1cc(C(=O)CSc2nnc(Nc3ccccc3)s2)c(C)n1CC1CCCO1 (stereo not drawn)	-0.9%	-1%	-4%	7%	-14%	-9%	-27%	-17%
C/C(=N\NC(=S)NC(C)C)c1ccc(Cl)s1	-11%	-30%	-10%	?	-12%	-1%	1%	-18%
COc1cccc(OCC(=O)Nc2ccc(OC)c(OC)c2)c1	2.6%	-10%	-2%	-5%	2%[46.1 µM]	0%	0%	-3%
COC(=O)c1ccc(NC(=O)CC2C(=O)N(c3ccc(Cl)cc3)C(=O)N2Cc2ccco2)cc1 (stereo not drawn)	-9.8%	nt	?	nt	nt	2%[46.1 µM]	8%	nt
CN(Cc1ccccc1)C(=O)CSc1cc(=O)n(C)c2ccccc12	nt	nt	nt	-2%	2%[46.1 µM]	0%[46.1 µM]	36%[activator]	1%
CC(=O)Nc1c2c(nn1-c1ccccc1C)CS(=O)(=O)C2	nt	-3%	nt	-1%	-27%[46.1 µM]	-2%[46.1 µM]	-7%	0%
O=C(/C=C/c1ccccc1)OCCCN=C1NS(=O)(=O)c2ccccc21	nt	-9%	nt	1%	?	-5%[46.1 µM]	3%	4%
NC(=O)CSc1nnc2sc3ccccc3n12	1.3%	7%	1%	-6%	-12%	-2%	-8%	-14%
N#C/C(=C(\O)C(F)(F)F)c1nnc2n1CCCCC2	nt	nt	nt	0%	-6%	?	2%	16%
O=S(=O)(Nc1cccc(-c2ccc(N3CCCCCC3)nn2)c1)c1ccccc1	1.1%	nt	-10%	nt	nt	-14%[46.1 µM]	36%[activator]	nt
COc1cc(NS(=O)(=O)c2ccc(NC(=O)/C=C/c3cccc([N+](=O)[O-])c3)cc2)ncn1	nt	nt	nt	-6%	?	21%[46.1 µM]	-2%	13%
COCCn1c(=S)[nH]c2cc(C(=O)N3CCN(c4ccc(F)cc4)CC3)ccc2c1=O	7.0%	-41%	6%	5%	-10%	0%	-18%	-1%
Oc1ccccc1C1=NCCNC(C(F)(F)F)=C1	nt	5%	nt	2%	0%[46.1 µM]	3%[46.1 µM]	-5%	0%
O=C(NC1CCC(O)CC1)c1ccc(-c2ccc(Cl)cc2)o1 (stereo not drawn)	nt	nt	nt	-1%	?	?	27%	13%
Cc1ccc(OC(=O)c2cc(-c3ccccc3)nc3ccc(C)cc23)cc1	-2.2%	nt	-6%	nt	-10%[46.1 µM]	8%[46.1 µM]	5%	nt
CC(C)OC(=O)CSc1nc(-c2ccc(F)cc2)cc(C(F)(F)F)n1	-4.9%	2%	?	-8%	?	-18%	-21%	1%
Cc1cccc(-n2ncc3c(N4CCOCC4)ncnc32)c1	1.8%	-22%	-16%	-24%	3.7µM*	1.6µM*	-77%	-19%
CN1C(=O)c2ccc(C(=O)NCc3ccccc3)cc2C1=O	-0.6%	-3%	-4%	-1%	-1%	20%	nt	-6%
Cn1ccc(C(=O)OCC(=O)Nc2ccccc2Cl)n1	nt	0%	nt	-3%	-3%[46.1 µM]	29%[46.1 µM]	9%	-19%
COC(=O)c1sc(NC(=O)/C=C/c2ccc(C)o2)nc1C	0.5%	11%	-2%	6%	?	?	21%	-25%
CCOC(=O)c1cn2nc(Oc3ccc(OC)cc3)ccc2n1	nt	5%	nt	3%	nt	nt	20%	-1%
OCCN(CCCn1c(C(F)(F)F)nc2ccccc21)c1nc(CN2CCCCC2)cs1	nt	-9%	nt	-16%	nt	nt	-10%	-13%
Oc1ccc(Cl)cc1-c1cc(-c2ccccc2Cl)[nH]n1	-12%	-5%	?	-1%	-1%	-4%	38%[activator]	40%
c1ccc(Oc2ccc(-c3ccnc4nc(N5CCOCC5)nn34)cc2)cc1	nt	-14%	nt	-1%	?	?	-28%	14%
Cc1ccc(N(O)C(=O)NCCCCNC(=O)N(O)c2ccc(C)cc2)cc1	nt	3%	nt	1%	-7%[46.1 µM]	13%[46.1 µM]	35%[activator]	-8%
CCC1C(=O)N=C(SCC(=O)Nc2ccc(C(=O)OC)cc2)NC1=O (stereo not drawn)	2.7%	11%	-5%	7%	-5%	-3%	10%	1%
Cc1csc(NC(=O)CSc2nnc(-c3cccnc3)o2)n1	nt	-11%	nt	-2%	30%[46.1 µM]	2%[46.1 µM]	16%	9%
Cc1ccc(Sc2c(C#N)c(-c3ccccc3)nn2C)cc1	-4.0%	-5%	-3%	-6%	?	-17%	-27%	1%
NC(=O)C1CCN(C(=O)c2cc(-c3ccc(Cl)cc3)nc3ccccc23)CC1	nt	nt	nt	17%	-5%	-16%	12%	-4%
COc1ccccc1CNC(=O)c1cc2c(s1)-c1ccccc1OC2	1.3%	nt	15%	nt	?	nt	37%[activator]	nt
COc1ccc(CNC(=O)CCCn2nc(C)c3sc4ccccc4c3c2=O)cc1OC	-4.8%	nt	-22%	nt	-11%[46.1 µM]	-9%[46.1 µM]	-6%	nt
N#Cc1ccc(OCC(=O)OCCCOC(=O)COc2ccc(C#N)cc2)cc1	nt	-8%	nt	-2%	22%	2%	-10%	-2%
Cc1cc(-c2ccc(C)c(S(=O)(=O)NCc3cccc(Br)c3)c2)on1	-6.4%	nt	-7%	-10%	nt	-18%[46.1 µM]	15%&38%	0%
Cc1ccc2nc(Cc3ccc(N)cc3)[nH]c2c1	-2.5%	-7%	-14%	-12%	?	1%	nt	-4%
OCC1(CC2CCCCO2)CCN(Cc2ccccc2-c2ccco2)CC1 (stereo not drawn)	nt	6%	nt	-1%	?	?	-20%	-22%
CCN(CC)C(=O)c1ccc(NC(=O)c2cccc(S(=O)(=O)N3CCN(Cc4ccccc4)CC3)c2)cc1	nt	nt	nt	4%	?	-29%	?	-18%
Cc1ccc(NC(=O)N2CCc3ccccc3C2)cc1	1.3%	-52%	-4%	-14%	?	48%[14.3 µM]	29%	-6%
Next records follow:
SMILES	Cruzain Triton	NS1 function inh	Cruzain noTriton	SARS PLpro yeast	Marburg entry inh	Lassa entry inh	StopGo reporter	RE007 growth inh
CC(C)c1cc(CNC(=O)C2CCC(=O)N(Cc3ccccc3F)C2)on1 (stereo not drawn)	nt	-5%	nt	-2%	-14%	5%	-11%	0%
O=C(NNC(=S)NCc1ccccc1)c1ccccc1OC(F)F	0.3%	17%	5%	?	?	0%	32%[activator]	nt
CC12CC3(C)CC(C)(C1)CC(C(=O)NC(=S)N1CCOCC1)(C2)C3	5.0%	-29%	7%	28%	?	?	nt	1%
CCOc1ccc(/C=N/NC(=O)c2cc3c(OC)cccc3[nH]2)cc1	nt	8%	nt	0%	?	?	-8%	4%
Cc1cccc(N(CC(=O)NCCSCc2ccccc2)S(=O)(=O)c2ccccc2)c1C	-6.5%	nt	3%	nt	?	?	0%	nt
COC(=O)CNC(=O)C(CCSC)NC(C)=O (stereo not drawn)	nt	1%	nt	-1%	2%[46.1 µM]	4%[46.1 µM]	3%	9%

Screening data as filed in PubChem.
